CSC inhib = cancer stem cell inhibition. cancer stem cell-like cells viability, luminescence. inhibition, % at 7.5 µM. 300,000 compounds, 1.1% hits. AID 2717;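 active = mean at 75% or more and at least half the replicates too; tested in HMLE shEcad cells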;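 note: 0% = median of negative and 100% = median of positive control wells; the first replicate is given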
Rce1 inh = inhibitors of yeast Ras-converting enzyme; Q03530; yeast membranes, quenched prenylated peptide cleavage fluorescence; calls only; 290,000 compounds, 0.27% hits; AID 2563;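 active = fall in fluorescence gain of 50% or more versus controls, with final raw signal at or below 3038400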;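 note: plate controls were neutral control wells for no effect and wells lacking membranes for full effect; tested at 10 µM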
eIF4H FP inh = inhibitors of RNA binding by human eIF4H; Q15056; eIF4H fluorescence polarization binding assay; inhibition, % at 35 µM; 290,000 compounds, 0.94% hits; AID 2012;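 active = 50% or more with normal probe brightness, or confirmed in later tests; about a fifth of its hits are not listed in these tables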;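 note: calls also rest on retests at 20 µM and on dose response follow-up; 0% = protein and probe with vehicle and 100% = probe without protein; strong numbers were not always called active; many hits fall short of the cut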
Env fusion inh = inhibitors of HIV Env-mediated cell fusion | 360,000 compounds, 1.1% hits | HeLa-JRFL Env/CEM21 cell fusion, luciferase | inhibition, % at 12.3 µM | AID 651610;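 active = mean replicate inhibition score of at least 50 and every replicate individually at or above 50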;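 note: 0% = plate neutral controls and 100% = maraviroc near 300 nM; one replicate is shown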
MT1-MMP act inh = inhibitors of human MT1-MMP activation | P50281 | HT1080 RFP-PRO-GFP cells, GFP/RFP ratio fluorescence, overnight; percent of plate control window, DMSO zero | GFP/RFP ratio change, % at 20 µM | 360,000 compounds, 0.061% hits | AID 651647;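 active = GFP/RFP ratio change of at least 30% with cell ATP level not reduced by more than half and red fluorescence within 50% of control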; note: strong numbers were not always called active
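Read-out: GFP/RFP fluorescence ratio; Test system: RFP-PRO-GFP reporter HT1080 cells; Compound dosing: single-point 20 µM compound, 1% DMSO; Times: overnight compound exposure at 37 °C.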
PABP polyA inh = PABP-poly(A) binding inhibition | P11940 | PABP-poly(A) RNA binding, fluorescence polarization | inhibition, % at 35 µM | 290,000 compounds, 1% hits | AID 2014;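 active = 50% or more with normal probe brightness, or confirmed in later tests; about a fifth of its hits are not listed in these tables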;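 note: calls also rest on retests at 20 µM and on dose response follow-up; controls were probe without protein and protein plus probe with vehicle; some compounds called inactive have numbers as strong as hits; many hits fall short of the cut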
Target sequence (P11940 whole entry, looked up): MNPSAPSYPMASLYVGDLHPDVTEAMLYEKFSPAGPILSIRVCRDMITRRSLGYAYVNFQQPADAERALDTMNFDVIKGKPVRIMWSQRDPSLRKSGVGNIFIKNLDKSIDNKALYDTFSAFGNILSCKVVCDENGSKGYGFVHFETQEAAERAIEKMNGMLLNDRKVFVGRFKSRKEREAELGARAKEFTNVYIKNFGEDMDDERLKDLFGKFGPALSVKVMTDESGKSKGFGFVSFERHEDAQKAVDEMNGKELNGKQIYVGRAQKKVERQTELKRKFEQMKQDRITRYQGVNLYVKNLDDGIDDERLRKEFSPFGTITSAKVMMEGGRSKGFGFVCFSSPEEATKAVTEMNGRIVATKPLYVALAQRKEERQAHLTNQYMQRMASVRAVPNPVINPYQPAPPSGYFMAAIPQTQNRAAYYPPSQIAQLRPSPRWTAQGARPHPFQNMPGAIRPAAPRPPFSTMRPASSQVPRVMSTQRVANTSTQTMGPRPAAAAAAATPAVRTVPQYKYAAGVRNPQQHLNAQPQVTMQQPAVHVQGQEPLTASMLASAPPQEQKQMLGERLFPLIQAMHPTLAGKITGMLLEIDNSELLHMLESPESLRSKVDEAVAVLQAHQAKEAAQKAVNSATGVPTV
UUG fidelity = yeast start codon fidelity modulation. S. cerevisiae UUG-firefly luciferase reporter, luminescence/redox ratio. activity score, % at 18.7 µM. 350,000 compounds, 0.13% hits;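 active = replicate mean at a twofold rise or more, about +100% in these data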;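 note: firefly luciferase made from a UUG start codon reports start codon fidelity; reporter light over untreated wells divided by growth signal over untreated wells; some hits fall short of that in this replicate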
MT1-MMP act inh RFP = also measured in MT1-MMP act inh; calls as there; RFP signal change, %; measured here: RFP expression control read;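 0 = vehicle wells; hits needed this value within 50% of zero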
Active calls of the source: *; & = joins results of further samples.

What do the screens show for `COc1ccc(-n2c(=S)[nH]c3cc(C(=O)NCCCN4CCCC4=O)ccc3c2=O)cc1`?
CSC inhib: -9; Rce1 inh: inactive; eIF4H FP inh: -2; Env fusion inh: 15; MT1-MMP act inh: 2; PABP polyA inh: -9; UUG fidelity: -21; MT1-MMP act inh RFP: 2

What do the screens show for `COc1ccc(C(=O)N2CCN(c3ccc(C)cc3)CC2)cc1OC`?
CSC inhib: 2; Rce1 inh: inactive; eIF4H FP inh: -7; Env fusion inh: 24; MT1-MMP act inh: 2; PABP polyA inh: -3; UUG fidelity: -4; MT1-MMP act inh RFP: 0

Results for COC(=O)C1(C(=O)OC)Sc2ccccc2C1=O ?
CSC inhib: -14; Rce1 inh: inactive; eIF4H FP inh: -4; MT1-MMP act inh: 0; PABP polyA inh: 8; UUG fidelity: -3; MT1-MMP act inh RFP: 3

How did Cc1ccc(CCNC(=O)CC2Oc3ccc(C)cc3NC2=O)cc1 (stereo unspecified) do in these assays?
CSC inhib: 0; Rce1 inh: inactive; eIF4H FP inh: -9; Env fusion inh: 0; MT1-MMP act inh: 5; PABP polyA inh: -24; UUG fidelity: -5; MT1-MMP act inh RFP: -3

How did O=C(COC(=O)/C=C/c1cccc(Cl)c1)NCc1cccs1 do in these assays?
CSC inhib: 3; MT1-MMP act inh: 1; UUG fidelity: -18; MT1-MMP act inh RFP: 4

Results for COc1ccc(Br)cc1CN(C)CC(=O)Nc1c(Cl)ccc(C)c1Cl ?
CSC inhib: 44; Rce1 inh: inactive; eIF4H FP inh: -9; Env fusion inh: 8; MT1-MMP act inh: -4; PABP polyA inh: -15; UUG fidelity: -9; MT1-MMP act inh RFP: -4

What do the screens show for `CSCCC(NC(=O)c1ccccc1Cl)C(=O)NNC(=O)c1ccncc1` (stereo unspecified)?
CSC inhib: -6; Rce1 inh: inactive; Env fusion inh: -78; MT1-MMP act inh: 0; UUG fidelity: 3; MT1-MMP act inh RFP: 0

How did Cc1c(-c2ccc(OCCN3CCCCC3)cc2)c(=O)oc2ccc3ccccc3c12 do in these assays?
Env fusion inh: 23; MT1-MMP act inh: 4; UUG fidelity: -4; MT1-MMP act inh RFP: 4

What do the screens show for `CC(C)CC(NS(=O)(=O)c1ccc2c(c1)oc(=O)n2C)C(=O)N1CC=C(c2ccccc2)CC1` (stereo unspecified)?
CSC inhib: 16; eIF4H FP inh: 3; Env fusion inh: 10; MT1-MMP act inh: -3; PABP polyA inh: -9; UUG fidelity: 16; MT1-MMP act inh RFP: -5

Results for Cc1nn(-c2ccccc2)c2c1/C(=N/O)CC(C)(C)C2 ?
CSC inhib: -1; Rce1 inh: inactive; eIF4H FP inh: -5; Env fusion inh: 41; MT1-MMP act inh: -8; PABP polyA inh: 3; UUG fidelity: -8; MT1-MMP act inh RFP: -7

Results for O=C(Cn1nc(C(F)(F)F)c2c1CCCC2)NCc1ccco1 ?
CSC inhib: 0; eIF4H FP inh: 8; Env fusion inh: 7; MT1-MMP act inh: 1; PABP polyA inh: 7; UUG fidelity: -14; MT1-MMP act inh RFP: 2

Results for O=C(Nc1ccc(-c2nc3ccccc3s2)cc1)c1cc(-n2cnnc2)ccc1Cl ?
CSC inhib: 24; eIF4H FP inh: 5; MT1-MMP act inh: 8; PABP polyA inh: -3; UUG fidelity: -13; MT1-MMP act inh RFP: -18

How did O=C(NCc1ccccn1)c1cc(-c2ccccc2)nc2ccccc12 do in these assays?
CSC inhib: 13; Rce1 inh: inactive; eIF4H FP inh: 7; Env fusion inh: -21; MT1-MMP act inh: 4; PABP polyA inh: 3; MT1-MMP act inh RFP: 6

What do the screens show for `CC(=O)c1ccc(NC(=O)CN2CCN(S(=O)(=O)c3ccc4ccccc4c3)CC2)cc1`?
Env fusion inh: -6; MT1-MMP act inh: -2; UUG fidelity: -8; MT1-MMP act inh RFP: -3

Results for Cc1cccc(NC(=O)c2sc3nc(N)c(C#N)cc3c2N)c1 ?
CSC inhib: -7; Rce1 inh: inactive; eIF4H FP inh: 31; Env fusion inh: -44; MT1-MMP act inh: -2; PABP polyA inh: 10; MT1-MMP act inh RFP: 0

How did COc1cccc(-c2noc(CCC(=O)N3CCN(c4cc(C)ccc4C)CC3)n2)c1 do in these assays?
Env fusion inh: 10; MT1-MMP act inh: 2; UUG fidelity: -25; MT1-MMP act inh RFP: 0

How did O=C(O)/C=C/C(=O)Nc1ccc(S(=O)(=O)Nc2nccs2)cc1 do in these assays?
CSC inhib: -12; Rce1 inh: inactive; eIF4H FP inh: 0; Env fusion inh: -11; MT1-MMP act inh: 3; PABP polyA inh: -2; UUG fidelity: -3; MT1-MMP act inh RFP: 1

What do the screens show for `Cn1c(=N)n(CC(=O)c2cccs2)c2ccccc21`?
CSC inhib: -10; Rce1 inh: inactive; eIF4H FP inh: 7; MT1-MMP act inh: 6; PABP polyA inh: 12; UUG fidelity: -14; MT1-MMP act inh RFP: 6

What do the screens show for `CC1(C)C(c2ccco2)=[N+]([O-])C2(CCCCC2=O)N1O` (stereo unspecified)?
CSC inhib: -12; Rce1 inh: inactive; eIF4H FP inh: 25; Env fusion inh: -138; MT1-MMP act inh: 2; PABP polyA inh: -2; UUG fidelity: -8; MT1-MMP act inh RFP: 6

How did CNC(=S)N/N=C(\C)c1ccc(N2CCOCC2)cc1 do in these assays?
Rce1 inh: inactive; eIF4H FP inh: -1; Env fusion inh: -19; MT1-MMP act inh: 5; PABP polyA inh: 10; UUG fidelity: -12; MT1-MMP act inh RFP: 2

What do the screens show for `COc1cc(NC(=O)NNC(=O)c2cc3occc3n2C)cc(OC)c1OC`?
CSC inhib: -1; Rce1 inh: inactive; eIF4H FP inh: -16; Env fusion inh: -20; MT1-MMP act inh: -4; PABP polyA inh: 1; UUG fidelity: 11; MT1-MMP act inh RFP: 2

Results for CCCN(CCC)CCCNC(=O)c1cc2c(=O)[nH]c3ccccc3c2s1 ?
CSC inhib: 5; Rce1 inh: inactive; eIF4H FP inh: -6; Env fusion inh: -19; MT1-MMP act inh: 8; PABP polyA inh: -8; UUG fidelity: -7; MT1-MMP act inh RFP: -2

How did O=C(c1ccc(Oc2ccccc2)cc1)C1CCCN(C(=O)c2cnccn2)C1 (stereo unspecified) do in these assays?
CSC inhib: -3; Rce1 inh: inactive; eIF4H FP inh: -1; Env fusion inh: 8; MT1-MMP act inh: -1; PABP polyA inh: -5; UUG fidelity: -8; MT1-MMP act inh RFP: -7

How did CCOc1ccc(Cl)cc1S(=O)(=O)NCc1cccnc1 do in these assays?
CSC inhib: -8; eIF4H FP inh: 4; Env fusion inh: 19; MT1-MMP act inh: 8; PABP polyA inh: -6; MT1-MMP act inh RFP: 3

How did Fc1ccccc1CN1CCCN(C(=S)Nc2cccc(Cl)c2)C1 do in these assays?
CSC inhib: 6; Rce1 inh: inactive; eIF4H FP inh: 9; Env fusion inh: 11; MT1-MMP act inh: -3; PABP polyA inh: 8; UUG fidelity: -3; MT1-MMP act inh RFP: -1

What do the screens show for `CCOC(=O)c1sc(C)c2c1NC(C)(c1cccc3ccccc13)NC2=O` (stereo unspecified)?
CSC inhib: -3; Rce1 inh: inactive; eIF4H FP inh: -4; MT1-MMP act inh: -4; PABP polyA inh: -8; UUG fidelity: 10; MT1-MMP act inh RFP: -1

How did COc1ccc(NC2=NC3(CCCCC3)N=C(N)N2)cc1 do in these assays?
CSC inhib: -19; Rce1 inh: inactive; eIF4H FP inh: -4; MT1-MMP act inh: 3; PABP polyA inh: 8; UUG fidelity: -1; MT1-MMP act inh RFP: 10

What do the screens show for `CC(Sc1nc(C2CC2)n(-c2ccccc2)n1)C(=O)c1c(N)n(C)c(=O)n(C)c1=O` (stereo unspecified)?
CSC inhib: -9; Rce1 inh: inactive; eIF4H FP inh: -9; MT1-MMP act inh: -3; PABP polyA inh: 0; UUG fidelity: -6; MT1-MMP act inh RFP: -2

What do the screens show for `CCN(CC)CCC(O)(c1ccccc1)C1CCCCC1` (stereo unspecified)?
CSC inhib: -21; Rce1 inh: inactive; eIF4H FP inh: -10; Env fusion inh: -6; MT1-MMP act inh: -16; PABP polyA inh: -14; UUG fidelity: -19; MT1-MMP act inh RFP: -9

What do the screens show for `CCc1ccc(N(CC)C(=O)c2cn(C)c(=O)c3ccccc23)cc1`?
CSC inhib: -22; Rce1 inh: inactive; eIF4H FP inh: -6; Env fusion inh: -3; MT1-MMP act inh: -7; PABP polyA inh: 9; UUG fidelity: 0; MT1-MMP act inh RFP: -2

Results for Cc1cccc(NC(=O)c2oc3c(c2C)C(=O)CC(C)(C)C3)n1 ?
CSC inhib: 29; Rce1 inh: inactive; eIF4H FP inh: -4; Env fusion inh: -6; MT1-MMP act inh: -1; PABP polyA inh: -3; UUG fidelity: -10; MT1-MMP act inh RFP: -3

What do the screens show for `COc1ccccc1NC(=O)CN(c1ccccc1C)S(C)(=O)=O`?
CSC inhib: -12; Rce1 inh: inactive; eIF4H FP inh: 2; Env fusion inh: 11; MT1-MMP act inh: -1; PABP polyA inh: 0; UUG fidelity: -16; MT1-MMP act inh RFP: 0

Results for Cc1cc(C)c[n+](-c2nc3ccccc3nc2C(=C=[N-])C#N)c1 ?
CSC inhib: -5&-5; Rce1 inh: inactive; eIF4H FP inh: 7&7; Env fusion inh: -2; MT1-MMP act inh: 7&3; PABP polyA inh: -7&16; UUG fidelity: -7&-5; MT1-MMP act inh RFP: 4&7

What do the screens show for `Cn1nc(C(=O)NNc2c(F)c(F)cc(F)c2F)c2ccccc2c1=O`?
CSC inhib: -8; Rce1 inh: inactive; eIF4H FP inh: -10; Env fusion inh: 22; MT1-MMP act inh: 7; PABP polyA inh: 0; UUG fidelity: -11; MT1-MMP act inh RFP: -1

What do the screens show for `Cc1ccn2c(c1)nc(=O)c1cc(S(=O)(=O)N3CCC(C)CC3)ccc12`?
CSC inhib: -15; Rce1 inh: inactive; eIF4H FP inh: -4; Env fusion inh: 0; MT1-MMP act inh: 0; PABP polyA inh: 7; UUG fidelity: -17; MT1-MMP act inh RFP: 6

How did CCN(CC(=O)Nc1ccc2c(c1)OCCO2)C(=O)CCc1ccc(OC)cc1 do in these assays?
Env fusion inh: 3; MT1-MMP act inh: -4; UUG fidelity: -14; MT1-MMP act inh RFP: -2

How did Cc1cc(F)ccc1C(O)c1ncc(-c2cccc3ccccc23)[nH]1 (stereo unspecified) do in these assays?
Env fusion inh: -19; MT1-MMP act inh: 1; UUG fidelity: -18; MT1-MMP act inh RFP: -1

How did COCCN=c1scc(-c2cc(OC)ccc2OC)n1/N=C/c1c[nH]c2ccccc12 do in these assays?
CSC inhib: 56; Rce1 inh: inactive; eIF4H FP inh: 2; Env fusion inh: -5; MT1-MMP act inh: -2; PABP polyA inh: 45; UUG fidelity: 0; MT1-MMP act inh RFP: -2

Reprinted at random: 4 records from the list
How did CCOc1ccc(Cl)cc1S(=O)(=O)NCc1cccnc1 do in these assays?
CSC inhib: -8; eIF4H FP inh: 4; Env fusion inh: 19; MT1-MMP act inh: 8; PABP polyA inh: -6; MT1-MMP act inh RFP: 3

What do the screens show for `CC(Sc1nc(C2CC2)n(-c2ccccc2)n1)C(=O)c1c(N)n(C)c(=O)n(C)c1=O` (stereo unspecified)?
CSC inhib: -9; Rce1 inh: inactive; eIF4H FP inh: -9; MT1-MMP act inh: -3; PABP polyA inh: 0; UUG fidelity: -6; MT1-MMP act inh RFP: -2

What do the screens show for `COc1ccccc1NC(=O)CN(c1ccccc1C)S(C)(=O)=O`?
CSC inhib: -12; Rce1 inh: inactive; eIF4H FP inh: 2; Env fusion inh: 11; MT1-MMP act inh: -1; PABP polyA inh: 0; UUG fidelity: -16; MT1-MMP act inh RFP: 0

What do the screens show for `CCc1ccc(N(CC)C(=O)c2cn(C)c(=O)c3ccccc23)cc1`?
CSC inhib: -22; Rce1 inh: inactive; eIF4H FP inh: -6; Env fusion inh: -3; MT1-MMP act inh: -7; PABP polyA inh: 9; UUG fidelity: 0; MT1-MMP act inh RFP: -2
